# Source: PubChem
# KCNQ2 pot: KCNQ2 (rat) channel potentiation; CHO-K1 KCNQ2, FluxOR thallium flux fluorescence; active compounds read high; O88943; hit rate 0.54% among 310,000; B-score at 10 µM;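 active means fluorescence ratio B-score at least 3 SD of library B-scores, with initial fluorescence B-score within 3 SD, cut at about 5.3 in these data; same plate scores as AID 2156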;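 further: B-score of peak minus minimum over baseline fluorescence ratio after K+ and Tl+ stimulus; positive B-score means potentiation of KCNQ2 with more thallium influx and brighter signal; only the inactives scoring about 0 or higher are listed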
# Target sequence (O88943 whole entry, looked up): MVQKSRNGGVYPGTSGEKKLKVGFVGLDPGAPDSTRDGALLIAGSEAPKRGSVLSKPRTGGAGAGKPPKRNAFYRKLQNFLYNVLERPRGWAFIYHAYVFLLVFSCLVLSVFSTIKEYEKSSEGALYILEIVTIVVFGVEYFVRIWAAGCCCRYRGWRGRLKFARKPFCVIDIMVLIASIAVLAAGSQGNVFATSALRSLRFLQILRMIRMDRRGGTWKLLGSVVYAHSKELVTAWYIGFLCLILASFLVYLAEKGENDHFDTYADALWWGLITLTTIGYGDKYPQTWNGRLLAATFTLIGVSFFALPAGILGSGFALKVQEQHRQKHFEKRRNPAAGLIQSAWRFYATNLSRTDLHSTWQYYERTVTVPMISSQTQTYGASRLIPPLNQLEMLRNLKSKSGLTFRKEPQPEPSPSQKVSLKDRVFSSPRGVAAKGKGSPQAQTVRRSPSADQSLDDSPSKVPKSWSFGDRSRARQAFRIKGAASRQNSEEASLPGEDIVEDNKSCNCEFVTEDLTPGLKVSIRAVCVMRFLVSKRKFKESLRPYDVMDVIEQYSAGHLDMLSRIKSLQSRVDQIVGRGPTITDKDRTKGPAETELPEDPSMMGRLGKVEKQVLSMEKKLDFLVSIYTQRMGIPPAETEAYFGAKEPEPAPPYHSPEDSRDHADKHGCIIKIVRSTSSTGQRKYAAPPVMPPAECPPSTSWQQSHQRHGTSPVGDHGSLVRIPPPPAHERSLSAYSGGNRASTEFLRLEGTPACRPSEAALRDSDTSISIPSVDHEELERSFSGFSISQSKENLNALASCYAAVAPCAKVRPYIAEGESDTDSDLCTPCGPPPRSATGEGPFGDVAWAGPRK
# KCNQ2 pot baseline: recorded beside KCNQ2 pot, whose call it bears; B-score; compound at 10 µM; measured here: initial fluorescence intensity artifact check;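 brightness before thallium and not channel activity; 0 = typical well and far values either way flag optical interference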
# * marks the source's active call; other numbers are inactive results. A portion of the library; count on the stated rates, not on these rows.
SMILES,KCNQ2 pot,KCNQ2 pot baseline
CCCNC(=O)Cn1cnc2sc(C(=O)Nc3cc(OC)c(OC)c(OC)c3)c(C)c2c1=O,2.4,1.5
COc1ccc(N2CCN(C(=O)CCc3ccccc3)CC2)cc1,0.06,-1.1
COc1ccc(C2C(C(=O)N3CCOCC3)CCC(=O)N2c2ccc(OC)cc2)cc1 (centres undefined),0.8,0.23
Cc1ccc(-n2c(C)nc3oc4ccccc4c(=O)c3c2=O)cc1,0.02,-0.06
O=C(COC(=O)c1ccc(S(=O)(=O)NCc2ccco2)cc1)Nc1ncc(Cl)cc1Cl,0.52,-0.06
CCN(CC)S(=O)(=O)c1cc(NC(=O)COC(=O)CCC(=O)c2ccc(F)cc2)ccc1C,0.11,1.6
COc1cc(OC)c(-c2nc3cnccc3n2C)cc1OC,0.66,0.54
COC(=O)c1ccccc1NC(=S)N(Cc1ccc2c(c1)OCO2)Cc1cc2cc(C)ccc2[nH]c1=O,0.13,-0.29
Nc1c(C=C2C=CC(=O)C=C2)c(=O)nc2snc(SCc3ccccc3)n12,2.3,1.3
CN(C)c1nnnn1-c1ccc(Oc2ccccc2)cc1,0.75,0.34
COc1ccc(-n2cc(-c3ccccc3)c3c(=S)nc[nH]c32)cc1,0.71,0.05
Cc1cc(-c2nn3c(-c4ccccc4)nnc3s2)c2ccccc2n1,0.23,-2
COc1ccccc1N1CCN(S(=O)(=O)c2c(C)[nH]c(=O)[nH]c2=O)CC1,0.75,-0.14
COc1ccc(-c2csc(Nc3ccc(S(N)(=O)=O)cc3)n2)cc1OC,1.5,-0.47
CCc1nnc(NC(=O)[C@@H](NC(=O)c2cccc(C)c2)C(C)C)s1,0.46,-0.54
COc1ccc(-c2cnc(OC(C)(C)C)nc2OC(C)(C)C)cc1OC,1.8,-1
C=CCn1cccc(C(=O)Nc2ccc(F)cc2)c1=O,0.69,0.66
O=C(NCCO)C(F)(F)C(F)(F)C(F)(F)OC(F)(C(=O)NCCO)C(F)(F)F (centres undefined),0.67,-0.79
CCCC(=O)Nc1cc(=O)n(C)c(=O)n1C,0.68,-0.07
O=C(NCc1ccccc1)N1CCn2c(nc3ccccc32)C1,0.42,0.5
O=C1C=CC(=O)N1c1ccc(Sc2ccc([N+](=O)[O-])cc2)cc1,0.03,0.54
Cc1cc(/C=C(\C#N)C(=O)NC2CC2)c(C)[nH]1,1.1,-0.76
COc1cc(OC)c(NC(=O)CCNS(=O)(=O)c2ccc3c(c2)CC(C)N3C(C)=O)cc1Cl (centres undefined),0.01,0.53
C/C(=N\OCC(=O)OCC(=O)NC(=O)c1ccc(OC(F)F)cc1)c1ccc2c(c1)OCO2,0.25,3
CN(CC(=O)Nc1ccc(Cl)c(C(F)(F)F)c1)C(=O)C1CSC2(C)CCC(=O)N12 (centres undefined),0.16,-1.7
COc1ccc(C)cc1S(=O)(=O)N(CC(=O)O)c1ccc(C)cc1,0.98,0.73
Cc1ccc(CN2CCNC(=O)C2CC(=O)N(C)Cc2cnccn2)cc1 (centres undefined),0.45,0.13
CCOc1ccc(C(=O)COC(=O)CC)cc1,0.19,-1.4
CCc1cc2cc(C)c(C)cc2nc1SCC(=O)Nc1cc(C)on1,0.89,1.9
CCOc1ccc2nc3c(cc2c1)CN(CCOC)C(=NCCOC)S3,1.1,-0.76
CCN(c1ccccc1)S(=O)(=O)c1ccc(NC(=O)c2nc(S(C)(=O)=O)ncc2Cl)cc1,9*,-0.41*
Cc1cc(NC(=O)COC(=O)C2CC(=O)N(c3ccccc3Cl)C2)no1 (centres undefined),1.5,-0.68
Cc1ccc(N(C(=O)c2snc(C(N)=O)c2N)C(C(=O)NCc2ccccc2)c2ccncc2)c(C)c1 (centres undefined),1.6,0.87
O=C(OCN1C(=O)c2ccccc2C1=O)c1cccnc1SC(F)F,0.13,-1.3
CCC(C)C(=O)Nc1nc(C)c(-c2csc(Nc3ccc(Cl)cc3)n2)s1 (centres undefined),0.36,0
C/C(CC(=O)Nc1ccc(C)c(Cl)c1)=N\NC(=O)C1CCCCC1,0.33,1.4
CCOC(=O)c1cc2c(nc1NC(=S)Nc1ccccc1)CC(C)(C)OC2,1.4,-0.32
CC(C)(CNC(=O)c1ccc(NS(=O)(=O)c2ccc(F)c(F)c2)cc1)N1CCOCC1,0.3,0.36
CCN(CC)CCNC(=O)c1ccc2c(c1)NC(=O)c1ccccc1S2,1.4,0.06
Cc1n[nH]c(C)c1S(=O)(=O)N1CCN(C(=O)c2ccco2)CC1,0.45,0.9
Nc1nc(Nc2ccccc2)nc(NCCO)c1[N+](=O)[O-],1,-2.5
CC1=NN(C(=O)c2ccc(Cn3ccc([N+](=O)[O-])n3)cc2)C(O)(C(F)(F)F)C1 (centres undefined),4.8,0.1
COC(=O)c1ccc2nc(NC(=O)C3CC3)sc2c1,2.4,0.28
COc1ccc(/C=N/NC(=O)CCC(=O)Nc2ccc(Br)cc2)c(OC)c1,0.58,0.76
O=S(=O)(c1ccc(Cl)cc1)N(CCCN1CCOCC1)Cc1cccs1,0.74,-1.1
O=C(Nc1ccc(S(=O)(=O)N2CCOCC2)cc1)c1nn(-c2ccc(F)cc2)ccc1=O,2.3,-1.3
CC(=O)c1ccc(OC(=O)CCN2c3ccccc3Sc3ccccc32)cc1,2,0.95
COC(=O)CSc1nc(C)c2ccc(OC)cc2n1,1.7,-0.38
O=C(/C=C/c1ccccc1)Nc1cccc(S(=O)(=O)Nc2ccccc2F)c1,2.8,-1.5
O=C(N/N=C/c1ccccn1)C(=O)N1CCCCCC1,1.4,-0.1

# Rewritten field by field: part of the list above.
> O=S(=O)(c1ccc(Cl)cc1)N(CCCN1CCOCC1)Cc1cccs1
  KCNQ2 pot: 0.74
  KCNQ2 pot baseline: -1.1

> O=C(Nc1ccc(S(=O)(=O)N2CCOCC2)cc1)c1nn(-c2ccc(F)cc2)ccc1=O
  KCNQ2 pot: 2.3
  KCNQ2 pot baseline: -1.3

> CC(=O)c1ccc(OC(=O)CCN2c3ccccc3Sc3ccccc32)cc1
  KCNQ2 pot: 2
  KCNQ2 pot baseline: 0.95

> COC(=O)CSc1nc(C)c2ccc(OC)cc2n1
  KCNQ2 pot: 1.7
  KCNQ2 pot baseline: -0.38

# Additional entries.
SMILES,KCNQ2 pot,KCNQ2 pot baseline
CC1CCCC(C)N1S(=O)(=O)c1ccc(NC(=O)CNC2CCCC2)cc1 (centres undefined),0.46,-0.67
O=[N+]([O-])c1ccc(-c2c(O)c3ccccc3c3nc4ccccc4nc23)cc1,1.1,-1.2
O=C(O)c1ccc2c(c1)C(=O)N(c1cc(C(=O)O)ccc1Br)C2=O,0.82,-2.1
CN1CCN(Cc2cc(=O)oc3ccc(Cl)cc23)CC1,0.45,-0.45
O=C(NCc1ccccn1)c1cc(-c2ccncc2)nc2ccccc12,0.65,-0.19
Cc1cc(C)c2c(=O)[nH]c(SCc3ccc([N+](=O)[O-])cc3)nc2n1,0.02,0.99
CCOc1ccc(Nc2nc(Cl)nc(NCCO)n2)cc1,0.05,-1.8
O=C(CSc1nnc2ccc(-c3ccncc3)nn12)Nc1ccc(F)cc1,0.55,-1.1
Cc1cccc(NC(=O)CCSc2ccccn2)c1,1.4,-0.71
O=C(Oc1ccccc1OC(=O)N1CCOCC1)N1CCOCC1,1.2,-2.7

# Random excerpt: five records from the list, in no set order.
SMILES,KCNQ2 pot,KCNQ2 pot baseline
CN1CCN(Cc2cc(=O)oc3ccc(Cl)cc23)CC1,0.45,-0.45
Cc1cc(C)c2c(=O)[nH]c(SCc3ccc([N+](=O)[O-])cc3)nc2n1,0.02,0.99
CC1CCCC(C)N1S(=O)(=O)c1ccc(NC(=O)CNC2CCCC2)cc1 (centres undefined),0.46,-0.67
O=C(O)c1ccc2c(c1)C(=O)N(c1cc(C(=O)O)ccc1Br)C2=O,0.82,-2.1
O=C(CSc1nnc2ccc(-c3ccncc3)nn12)Nc1ccc(F)cc1,0.55,-1.1

# Further compounds:
SMILES,KCNQ2 pot,KCNQ2 pot baseline
CC1(C)OC2OC(C(=O)N/N=C/c3ccccc3F)C3OC(C)(C)OC3C2O1 (centres undefined),1.1,0.97
Cc1ccc(N=C2NC(=O)/C(=C/c3cccnc3)S2)c(C)c1,2.7,0.98
O=C(OCC(F)(F)F)c1cccc(COc2ccc3ccccc3c2)c1,0.96,0.76
O=C(NCCc1ccccc1)C(=O)Nc1nccs1,2.5,-1.6
O=C(Nc1ccc2c(c1)OCCO2)c1ccc(NC(=O)C2CCCO2)cc1 (centres undefined),0.74,0.26
C=CCN(c1ccc(C(=O)N2CCCC2)cc1)S(C)(=O)=O,0.83,0
Nc1nc(CSc2ncccn2)nc(Nc2ccccc2)n1,2.9,-0.01
C/C(=N\NC(=O)COc1ccccc1F)c1cc2ccccc2o1,3.5,-2.1
COc1ccccc1Nc1nc(NCCC(C)C)nc(N)c1[N+](=O)[O-],2.1,-0.61
O=C(NCc1ccncc1)Nc1ccccc1F,0.12,0.82
CCn1cc(C(=O)NCc2cccnc2)c2cc(OC)c(OC)cc2c1=O,0.2,-0.16
O=C(CCS(=O)(=O)c1cccc2nonc12)N1CCCc2ccccc21,0.19,0.04
Cc1c(NC2=NC3(CCCCC3)Cc3ccccc32)c(=O)n(C)n1-c1ccccc1,0.35,-0.35
COCC(=O)N1CCC(Oc2ccc(C(=O)N3CCN(C)C[C@@H]3C(C)C)cc2)CC1,2.4,-1.8
CCN(CC)CCNC(=O)Cn1nc(Cc2ccccc2)c2ccccc2c1=O,0.84,0.37
COc1cc(-c2cc(=O)c3c(O)c(OC)c(OC)c(OC)c3o2)cc(OC)c1OC,1.6,-1.9
CC(Oc1ccc2c3c(c(=O)oc2c1)CCCC3)C(=O)NCc1cccnc1 (centres undefined),0.52,-1.6
COc1ccc(C(=O)Nc2cccnc2)cc1,1.2,0.06
Oc1ccc2ccccc2c1CN1CCCC1,0.84,0.1
CC(=O)c1cc(-c2ccccc2)[nH]c1N1CCOCC1,2.5,-0.46
Nc1nc(SCC(=O)Nc2cc(C(F)(F)F)ccc2Cl)[nH]c(=O)c1NC(=O)c1ccco1,0.2,0.28
O=S(=O)(c1cccs1)N1CN(Cc2ccccc2)c2nc3ccccc3nc21,0.06,-0.51
COc1ccccc1Nc1nnc(SCC(=O)N2CC(=O)Nc3ccccc32)s1,0.02,-4
CSc1nc(C)c(Cc2c(F)cccc2Cl)c(=O)[nH]1,0.4,1
CCOc1ccc(NC(=O)c2nn(C)cc2Br)cc1,0.23,1.8
Cc1cc(NC(=O)c2cc3n(n2)C(C(F)(F)F)CC(c2ccco2)N3)no1 (centres undefined),0.91,0.04
Nc1cc(=O)[nH]c(SCCOc2ccccc2)n1,0.44,1.5
O=C(Nc1cccc([N+](=O)[O-])c1)c1ccc2c(c1)OCCO2,0.82,-0.21
CCC1(C)Cc2c(c(=O)n(-c3ccccc3)c3ncnc(N)c23)CO1 (centres undefined),0.01,-0.41
Cc1ccc(C(=O)N/N=C/c2ccc(N3CCOCC3)cc2)c(C)c1,0.16,-0.01
CCc1nnc(NC(=O)c2ccc(S(=O)(=O)N3CCc4ccccc4C3)cc2)s1,2.8,0.59
Cc1sc2nc(CN3CCOCC3)[nH]c(=O)c2c1-c1ccccc1,0.29,0.16
C/C(=N\NC(=O)c1cc2ccccc2cc1O)c1ccccn1,5.9*,0.94*
CC(C)Cc1nnc(NC(=O)C2CCN(C(=O)c3ccc(Cl)cc3)CC2)s1,0.83,-1.2
Cc1cc(Br)c(S(=O)(=O)NCc2ccncc2)cc1C,0.92,-1.4
CCC(Sc1nc(C)cc(C)n1)C(=O)Nc1nccs1 (centres undefined),0.19,-0.39
Fc1ccccc1/C=N/Nc1ccc(Cl)nn1,1.1,1.3
CCOc1ccc(CN(C)CC(=O)Nc2cccc(C)c2)cc1OC,0.91,0.49
Cc1cc(NS(=O)(=O)c2ccc(NC(=O)C(C)Oc3ccc(Cl)cc3)cc2)no1 (centres undefined),1.3,-0.65
O=C1c2ccccc2-c2n[nH]c(=O)c3ccc(N4CCCCC4)c1c23,0.14,-0.25
O=C(CCc1nc(-c2cccs2)no1)Nc1cnc2ccccc2c1,0.02,0.08
Cc1nc(-c2ccc(S(=O)(=O)N3CCN(CCc4ccccc4)CC3)s2)cs1,0.08,0
CCOc1ccc(NS(=O)(=O)c2cc(C(=O)N3CCC3)ccc2Cl)cc1,0.16,1.9
O=C1[C@H]2[C@@H](c3ccc(F)cc3)N3C(=O)N(c4ccc(Br)cc4)C(=O)[C@@]3(Cc3ccccc3)[C@H]2C(=O)N1C1CCCCC1,0.04,0.21
CCOc1cccc(/C=N/N=C/c2cccc(OCC)c2O)c1O,2,-0.08
COc1ccc2c(c1)[nH]c1c(=O)n(CC3CCCO3)cnc12 (centres undefined),0.13,-0.2
CC(C)(C)NC(=O)C(c1cccs1)N(Cc1cccs1)C(=O)c1csnn1 (centres undefined),1.8,-0.4
CC(CN1C(C)CCCC1C)OC(=O)c1ccccc1Br (centres undefined),0.05,-0.49
COC(=O)N/N=C/c1cn(Cc2ccc(F)cc2)c2ccccc12,0.13,0.29
CCC(CC)COC(=O)C1=C(C)NC(=O)NC1c1cccc([N+](=O)[O-])c1 (centres undefined),1.5,0.03

# Next structures follow:
SMILES,KCNQ2 pot,KCNQ2 pot baseline
Cn1cc([N+](=O)[O-])c(C(=O)Nc2nccs2)n1,0.38,0.14
CSc1ncc(Sc2ccccc2)c(C(=O)O)n1,0.82,2.2
Cc1ccc(S(=O)(=O)N(Cc2cc3ccccc3[nH]c2=O)CC2CCCO2)cc1 (centres undefined),0.25,-0.78
O=C(O)[C@H]1CCC(=O)N1Cc1ccco1,2.2,-1.6
CCOC(=O)CC(NC(=O)Cc1ccc(F)cc1)c1ccccc1Cl (centres undefined),0.18,1.6
O=C(CSc1ccccc1)Nc1ccc2c(c1)OCCO2,1.4,0.4

# Single entries from the entries so far:
# Cn1cc([N+](=O)[O-])c(C(=O)Nc2nccs2)n1 in KCNQ2 pot is entered as 0.38
# O=C(O)[C@H]1CCC(=O)N1Cc1ccco1 in KCNQ2 pot is entered as 2.2
